# Compound activity as filed in PubChem.
# Env fusion inh – HIV envelope-mediated fusion inhibition | HeLa-JRFL Env/CEM21 cell fusion, luciferase | inhibition, % at 12.3 µM | 360,000 compounds, 1.1% hits | AID 651610;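 active = mean replicate inhibition score of at least 50 and every replicate individually at or above 50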;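 note: 0% = plate neutral controls and 100% = maraviroc near 300 nM; one replicate is shown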
# Numbers without * were called inactive; [ ] = another dose, or the depositor's remark.
Env fusion inh,SMILES
8.6[16.7 µM],CO[C@H]1CN(C)C(=O)c2cc(NC(=O)Nc3c(C)noc3C)ccc2OC[C@H](C)N(CCC(F)(F)F)C[C@@H]1C
-3.8[16.7 µM],CCCN1C[C@H](C)[C@H](OC)CN(C)C(=O)c2ccc(NC(=O)c3ccccc3F)cc2OC[C@@H]1C
9.0,NC(=O)c1ncn([C@@H]2O[C@H](C(=O)N3CCCN(Cc4ccccc4F)CC3)[C@@H](O)[C@H]2O)n1
-0.7[16.7 µM],CCC(=O)Nc1ccc2c(c1)OC[C@H](C)N(CC1CCCCC1)C[C@@H](C)[C@H](OC)CN(C)C2=O
-4.4[16.7 µM],C[C@@H]1CN([C@@H](C)CO)C(=O)c2c(c3ccccc3n2C)-c2ccccc2CO[C@@H]1CN(C)Cc1cccc(C(=O)O)c1
3.0[16.7 µM],C[C@H](CO)N1C[C@H](C)[C@@H](CN(C)Cc2ccc(C(F)(F)F)cc2)Oc2ccc(NC(=O)CCN3CCOCC3)cc2C1=O
-42.9[16.7 µM],C[C@@H]1CCCCO[C@H](CN(C)Cc2ccncc2)[C@@H](C)CN([C@@H](C)CO)C(=O)c2cc(NC(=O)Nc3ccccc3)ccc2O1
3.2[16.7 µM],COc1cccc(C(=O)Nc2ccc3c(c2)C(=O)N(C)C[C@H](OC)[C@@H](C)CN(C(C)=O)[C@@H](C)CO3)c1
-8.5,COc1ccc(NC(=O)C2c3ccccc3OCC(=O)N2CC(F)(F)F)cc1 (stereo unspecified)
14.3[16.7 µM],C[C@@H]1CN([C@H](C)CO)C(=O)c2c(c3ccccc3n2C)-c2ccccc2CO[C@H]1CN(C)S(=O)(=O)c1cccs1
-29.3,COC(=O)C1=C(C)N(Cc2cccc(C(F)(F)F)c2)C(=NCc2cc(OC)c(OC)c(OC)c2)NC1c1ccccc1 (stereo unspecified)
36.6[16.7 µM],COc1ccc2c3c(n(C)c2c1)[C@H](CO)N(C(=O)Nc1ccc(F)cc1)CC31CN(C(=O)c2ccc3c(c2)OCO3)C1
-54.9,C#CCC1c2ccccc2CCN1CC=C (stereo unspecified)
11.9[16.7 µM],C[C@H](NC(=O)C[C@@H]1C[C@@H]2c3cc(NC(=O)NC4CCCCC4)ccc3O[C@@H]2[C@@H](CO)O1)c1ccccc1
19.4[16.7 µM],C[C@H]1CN([C@@H](C)CO)C(=O)Cc2cc(NS(C)(=O)=O)ccc2O[C@@H]1CN(C)C(=O)Nc1cccc2ccccc12
36.1[16.7 µM],CN1CCN(C(=O)C[C@H]2C[C@H]3c4cc(NC(=O)C5CCC5)ccc4O[C@H]3[C@H](CO)O2)CC1
-14.2[16.7 µM],CCNC(=O)C[C@H]1CC[C@@H]2[C@H](COC[C@@H](O)CN2Cc2ccncc2)O1
-5.3[16.7 µM],CO[C@@H]1CN(C)C(=O)c2cc(NC(=O)NC(C)C)ccc2OC[C@@H](C)NC[C@@H]1C
11.0[16.7 µM],CCC(=O)N1[C@@H]2c3ccc(-c4ccccc4OC)c(=O)n3C[C@@H]2[C@@H](CO)[C@@H]1C(=O)NCCCN(C)C
5.3[16.7 µM],C[C@@H]1CN([C@@H](C)CO)C(=O)Cc2cc(NC(=O)CCCN(C)C)ccc2O[C@H]1CN(C)Cc1ccncc1
7.5[16.7 µM],CO[C@H]1CN(C)C(=O)c2cc(NC(=O)C3CC3)ccc2OC[C@@H](C)N(CCc2ccccc2)C[C@@H]1C
-13.4,COc1ccc(-c2ccc3c(n2)CCCN3S(=O)(=O)c2ccccc2C)cc1
2.9[16.7 µM],CCCNC(=O)N1[C@@H]2c3ccc(-c4cccc(OC)c4)c(=O)n3C[C@H]1[C@H](CO)[C@H]2C(=O)NC1CCC1
6.6[16.7 µM],CN1c2ccc(-c3cccc(C#N)c3)cc2[C@@H]2[C@@H](CCN2C(=O)NC2CCCC2)[C@H]1CO
-41.4[16.7 µM],COc1ccc(OC(=O)N(C)C[C@@H]2OCc3ccccc3-c3ccccc3C(=O)N([C@@H](C)CO)C[C@@H]2C)cc1
9.0[16.7 µM],C[C@@H]1CN([C@H](C)CO)C(=O)c2c(c3ccccc3n2C)-c2ccccc2CO[C@@H]1CN(C)C(=O)Cc1ccccc1
-6.5[16.7 µM],CN(C)c1ccc2c(c1)[C@H]1C[C@@H](CC(=O)NCC3CC3)O[C@@H](CO)[C@H]1O2
5.2[16.7 µM],CCCC#Cc1ccc2c(c1)O[C@H](CN(C)Cc1ccccc1)[C@H](C)CN([C@H](C)CO)S2(=O)=O
-16.1[16.7 µM],CO[C@@H]1CN(C)C(=O)c2ccc(NC(C)=O)cc2OC[C@H](C)N(Cc2cncnc2)C[C@@H]1C
13.5[16.7 µM],CN1C(=O)c2cc(NC(=O)c3cccs3)ccc2OC[C@H]2O[C@@H](CC(=O)Nc3ccc4c(c3)COC4)CC[C@@H]21

# An excerpt of these results, bar-delimited.
smiles | Env fusion inh
C[C@@H]1CN([C@@H](C)CO)C(=O)Cc2cc(NC(=O)CCCN(C)C)ccc2O[C@H]1CN(C)Cc1ccncc1 | 5.3[16.7 µM]
CO[C@H]1CN(C)C(=O)c2cc(NC(=O)C3CC3)ccc2OC[C@@H](C)N(CCc2ccccc2)C[C@@H]1C | 7.5[16.7 µM]

# (cont.)
Env fusion inh,SMILES
30.0,Clc1cccc(CN2CCN(c3ncc(Cc4ccccc4)cn3)CC2)c1Cl
-0.8[16.7 µM],CCS(=O)(=O)Nc1ccc2c(c1)C(=O)N(C)[C@H]1CC[C@H](CC(=O)N[C@H]3CCN(Cc4ccccc4)C3)O[C@H]1CO2
-20.2[16.7 µM],COc1ccc(C[C@H]2CCc3cnnn3COC[C@H](Cc3ccccc3)NC2=O)cc1
5.5[16.7 µM],CCCNC(=O)Nc1ccc2c(c1)OC[C@@H](C)N(C(C)=O)C[C@@H](C)[C@@H](OC)CN(C)C2=O
29.8[16.7 µM],COc1ccc2c3c(n(C)c2c1)[C@@H](CO)N(C(=O)Cc1ccccc1)CC31CN(C(=O)Cc2ccccc2)C1
47.1[16.7 µM],COc1cccc(S(=O)(=O)N(C)C[C@@H]2Oc3cc(C4=CCCCC4)ccc3S(=O)(=O)N([C@H](C)CO)C[C@@H]2C)c1
3.7,COCCN1Cc2cc(C(=O)OC)c3c(c2C1=O)c1cc(OC)ccc1n3S(=O)(=O)c1ccc(C)cc1
-6.4,COC(=O)C1=C(C)N(Cc2ccc(C(F)(F)F)cc2)C(=NCc2ccc(OC)cc2)NC1c1ccccc1 (stereo unspecified)
6.1[16.7 µM],C[C@@H]1CN([C@@H](C)CO)C(=O)c2cc(NC(=O)CCCN(C)C)ccc2O[C@@H]1CN(C)S(C)(=O)=O
12.5[16.7 µM],CC(C)NC(=O)Nc1ccc2c(c1)C(=O)N([C@@H](C)CO)C[C@@H](C)[C@H](CN(C)C(=O)NC1CCCCC1)OCCCC[C@H](C)O2
-1.0[16.7 µM],CC(C)NC(=O)N(C)C[C@H]1OCCCC[C@H](C)Oc2ccc(NC(=O)CCC(F)(F)F)cc2C(=O)N([C@H](C)CO)C[C@@H]1C
0.9[16.7 µM],CCCC(=O)Nc1ccc2c(c1)C(=O)N(C)C[C@H](OC)[C@H](C)CN(Cc1cncnc1)[C@H](C)CO2
-131.9,COCCN1CCCc2nc(-c3ccc(F)cc3)ccc21
-18.2[16.7 µM],C[C@H](CO)N1C[C@H](C)[C@H](CN(C)Cc2ccc(-c3ccccc3)cc2)Oc2ccc(NS(=O)(=O)c3ccc(Cl)cc3)cc2CC1=O
10.9[16.7 µM],CN(C)c1ccc2c(c1)[C@H]1C[C@@H](CC(=O)NCc3ccc(Oc4ccccc4)cc3)O[C@@H](CO)[C@H]1O2
8.8,OC1(C#Cc2c(-c3ccsc3)sc3ccccc23)CCCCC1
-8.4[16.7 µM],C[C@@H]1CN([C@@H](C)CO)C(=O)c2cc(NC(=O)CCN3CCOCC3)ccc2O[C@@H]1CN(C)Cc1ccc(Cl)c(Cl)c1
12.3[16.7 µM],Cc1cc(C(=O)Nc2ccc3c(c2)C(=O)N(C)[C@H]2CC[C@@H](CC(=O)NCc4ccc(-c5ccccc5)cc4)O[C@@H]2CO3)no1
-5.4[16.7 µM],COc1cccc(S(=O)(=O)Nc2ccc3c(c2)[C@@H]2C[C@@H](CC(=O)NC4CCCCC4)O[C@H](CO)[C@@H]2O3)c1
-20.8[16.7 µM],C[C@H]1CN([C@@H](C)CO)C(=O)c2ccccc2-c2ccccc2CO[C@H]1CN(C)C(=O)NC1CCCCC1
-6.0,COCc1[nH]nc2c1C(c1ccc(Br)cc1)N(Cc1ccccc1)C2=O (stereo unspecified)
11.1[16.7 µM],CCCN1C[C@H](C)[C@@H](OC)CN(C)C(=O)c2cc(NC(=O)COC)ccc2OC[C@@H]1C
10.7[16.7 µM],CN(C)C(=O)C[C@@H]1C[C@H]2c3cc(NC(=O)CC4CC4)ccc3O[C@H]2[C@H](CO)O1
4.6[16.7 µM],CN(C)c1ccc2c(c1)[C@@H]1C[C@@H](CC(=O)N3CCc4ccccc4C3)O[C@H](CO)[C@@H]1O2
-45.8,CCOC(=O)N1CCN(C(=O)C[C@H]2C[C@@]3(C(=O)OC)C(=C[C@H](C(C)C)O[C@@H]3C3CC3)N(Cc3ccccc3)C2=O)CC1
-10.8[16.7 µM],Cc1ccc(S(=O)(=O)Nc2ccc3c(c2)C(=O)N([C@H](C)CO)C[C@H](C)[C@H](CN(C)C(=O)c2ccncc2)OCCCC[C@@H](C)O3)cc1
-17.8[16.7 µM],C[C@@H]1CN([C@@H](C)CO)C(=O)c2cccc(N(C)C)c2O[C@@H]1CN(C)Cc1ccc(-c2ccccc2)cc1
-15.9[16.7 µM],O=C(C[C@@H]1CC[C@@H]2[C@H](COC[C@@H](O)CN2Cc2cc(F)ccc2F)O1)N[C@H]1CCN(Cc2ccccc2)C1
2.1[16.7 µM],C[C@H](CO)N1C[C@H](C)[C@@H](CN(C)C)OCCCC[C@H](C)Oc2ccc(NC(=O)Nc3ccc(F)cc3)cc2C1=O
-3.9[16.7 µM],COC(=O)C[C@H]1CC[C@@H]2[C@@H](COc3ccc(NC(=O)c4ccccc4F)cc3C(=O)N2C)O1
7.1[16.7 µM],O=C(C[C@H]1C[C@@H]2c3cc(NC(=O)Nc4ccc(C(F)(F)F)cc4)ccc3O[C@@H]2[C@H](CO)O1)NCc1cc(F)ccc1F
31.8[16.7 µM],O=C(NC1CCCC1)N1CC(=O)N2[C@H](C1)[C@@H](c1ccc(-c3cccc(F)c3)cc1)[C@@H]2CO
35.5,CCCCCCCCN1C(=O)[C@@H](CC(=O)N2CCN(C(=O)C3CC3)CC2)C[C@@]2(C(=O)OC)C1=C[C@H](C(C)(C)C)O[C@@H]2C
-1.2[16.7 µM],COc1ccc(NC(=O)Nc2ccc3c(c2)[C@H]2C[C@H](CC(=O)NC4CCCCC4)O[C@@H](CO)[C@H]2O3)cc1
26.4[16.7 µM],CN1C(=O)c2cc(NC(=O)Cc3cccs3)ccc2OC[C@@H]2O[C@H](CC(=O)N[C@@H]3CCN(Cc4ccccc4)C3)CC[C@@H]21
14.0[16.7 µM],CC(C)(C)[S@](=O)N1Cc2cc(C(=O)NCCN3CCCCC3)nc(-c3cccc(-c4cccc(C#N)c4)c3)c2[C@@H]1CCO
21.9[16.7 µM],C[C@H]1CN([C@@H](C)CO)C(=O)CCCn2cc(nn2)CO[C@@H]1CN(C)Cc1ccc2c(c1)OCCN2C
-15.2,CN1OC[C@@H]2CN(Cc3ccc4c(c3)OCO4)[C@H](c3ccc(-n4ccnc4)cc3)C[C@@H]21
10.7[16.7 µM],COc1cccc(CNC(=O)C[C@@H]2CC[C@H]3[C@@H](COc4ccc(NS(=O)(=O)c5ccccc5F)cc4C(=O)N3C)O2)c1
15.2[16.7 µM],C[C@H]1CN([C@@H](C)CO)C(=O)CCCn2nncc2CO[C@H]1CN(C)Cc1cccc(C(F)(F)F)c1
38.9,COC(=O)C1=C(C)N(Cc2ccc(Br)cc2)C(=S)NC1c1cccc(F)c1 (stereo unspecified)
-8.6[16.7 µM],O=C(C[C@@H]1CC[C@H]2NC[C@H](O)COC[C@@H]2O1)NCCN1CCCCC1
-10.9[16.7 µM],COc1ccc2c3c(n(C)c2c1)[C@@H](CO)N(C(=O)c1ccc(F)cc1)CC31CN(CC2CC2)C1
5.1[16.7 µM],CC(C)(C)[S@](=O)N1Cc2cc(C(=O)N3CCc4ccccc4C3)nc(-c3cccc(-c4ccncc4)c3)c2[C@@H]1CCO
-5.3[16.7 µM],COc1ccc(C[C@@H]2CCn3cc(nn3)COC[C@H](CC(C)C)NC2=O)cc1
-3.3,CCc1cc2c(nc1CC)CCCN2S(=O)(=O)c1ccc(F)cc1
9.6[16.7 µM],C[C@@H]1CN([C@@H](C)CO)S(=O)(=O)c2ccc(Br)cc2O[C@@H]1CN(C)C(=O)C1CCC1
21.0[16.7 µM],C[C@H]1CN([C@@H](C)CO)C(=O)c2c(c3ccccc3n2C)-c2ccccc2CO[C@H]1CN(C)S(=O)(=O)c1cccs1

# By substructure: the compounds so far with a CF3 group.
Env fusion inh,SMILES
8.6[16.7 µM],CO[C@H]1CN(C)C(=O)c2cc(NC(=O)Nc3c(C)noc3C)ccc2OC[C@H](C)N(CCC(F)(F)F)C[C@@H]1C
3.0[16.7 µM],C[C@H](CO)N1C[C@H](C)[C@@H](CN(C)Cc2ccc(C(F)(F)F)cc2)Oc2ccc(NC(=O)CCN3CCOCC3)cc2C1=O
-8.5,COc1ccc(NC(=O)C2c3ccccc3OCC(=O)N2CC(F)(F)F)cc1 (stereo unspecified)
-29.3,COC(=O)C1=C(C)N(Cc2cccc(C(F)(F)F)c2)C(=NCc2cc(OC)c(OC)c(OC)c2)NC1c1ccccc1 (stereo unspecified)
-6.4,COC(=O)C1=C(C)N(Cc2ccc(C(F)(F)F)cc2)C(=NCc2ccc(OC)cc2)NC1c1ccccc1 (stereo unspecified)
-1.0[16.7 µM],CC(C)NC(=O)N(C)C[C@H]1OCCCC[C@H](C)Oc2ccc(NC(=O)CCC(F)(F)F)cc2C(=O)N([C@H](C)CO)C[C@@H]1C
7.1[16.7 µM],O=C(C[C@H]1C[C@@H]2c3cc(NC(=O)Nc4ccc(C(F)(F)F)cc4)ccc3O[C@@H]2[C@H](CO)O1)NCc1cc(F)ccc1F
15.2[16.7 µM],C[C@H]1CN([C@@H](C)CO)C(=O)CCCn2nncc2CO[C@H]1CN(C)Cc1cccc(C(F)(F)F)c1

# A portion of the library; count on the stated rates, not on these rows.
